Source: PubChem BioAssay (National Center for Advancing Translational Sciences (NCATS))
Six1-Eya2 inh: Six1/Eya2 interaction inhibition; Q15475+O00167; AlphaScreen GST-Six1/His-Eya2 binding, biochemical; stronger effect = lower value; control for the full effect not named in the record; activity change, % (test concentration not listed); actives 0.56% (n = 360,000); AID 651725; in the data active = activity change below about -65%; inconclusive = about -30% to -65%; inactive = above about -30%; note: % is set by controls: 0 for no effect and ±100 for the full control effect; compound concentration not given in the record
Target sequence (O00167 whole entry, looked up): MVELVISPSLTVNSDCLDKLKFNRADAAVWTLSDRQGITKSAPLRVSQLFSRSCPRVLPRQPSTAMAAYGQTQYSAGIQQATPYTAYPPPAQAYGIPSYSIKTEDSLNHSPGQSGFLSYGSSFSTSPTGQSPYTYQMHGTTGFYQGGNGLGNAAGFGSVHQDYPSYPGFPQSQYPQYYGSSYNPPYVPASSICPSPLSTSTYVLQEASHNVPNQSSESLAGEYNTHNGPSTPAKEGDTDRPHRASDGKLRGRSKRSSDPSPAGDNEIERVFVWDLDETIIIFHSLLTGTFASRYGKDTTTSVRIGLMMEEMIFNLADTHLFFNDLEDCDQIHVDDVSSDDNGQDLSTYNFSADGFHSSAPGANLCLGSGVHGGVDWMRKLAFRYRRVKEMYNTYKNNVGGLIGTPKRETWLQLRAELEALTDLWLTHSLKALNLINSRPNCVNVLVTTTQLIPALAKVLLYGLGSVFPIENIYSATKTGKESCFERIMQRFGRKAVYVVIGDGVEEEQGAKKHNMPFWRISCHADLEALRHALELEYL
Target sequence (Q15475 whole entry, looked up): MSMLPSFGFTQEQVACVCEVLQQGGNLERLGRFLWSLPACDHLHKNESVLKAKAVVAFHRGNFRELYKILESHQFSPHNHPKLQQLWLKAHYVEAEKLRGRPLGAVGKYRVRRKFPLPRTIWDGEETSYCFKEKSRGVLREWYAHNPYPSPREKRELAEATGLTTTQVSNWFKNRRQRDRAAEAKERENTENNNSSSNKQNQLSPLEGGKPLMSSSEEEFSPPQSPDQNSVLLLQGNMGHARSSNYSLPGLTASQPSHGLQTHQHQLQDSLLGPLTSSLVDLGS
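Homogeneous AlphaScreen proximity assay pairing GST-Six1 with His-tagged Eya2 (added as 5X mix: 250 nM and 500 nM) in 50 mM Tris pH 8.0, 300 mM NaCl, 1 mM TCEP. Glutathione donor and nickel acceptor beads; 1 h, 37 °C, dark.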
CtBP-E1A inh: blocks the CtBP interaction with E1A. actives 0.49% (n = 340,000). AID 651724. activity change, % (no concentration beside the values). AlphaScreen GST-E1A/His-CtBP binding, 1536-well; stronger effect = lower value; control for the full effect not named in the record; in the data active means activity change below about -65%; inconclusive means about -30% to -65%; inactive means above about -30%; note: % is set by controls: 0 for no effect and ±100 for the full control effect; compound concentration not given in the record
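Homogeneous bead-based format: GST-tagged E1A captured on glutathione donor beads, His-tagged CtBP on nickel acceptor beads; compounds precede bead addition by 2 h at 37 °C.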
gsp ag: agonists of gsp mutant (McCune-Albright syndrome); gsp mutant cells, cAMP HTRF, 30 min; control for the full effect not named in the record; Potency, µM (doses to about 76.9 µM), for the others: at the highest dose activation (cAMP increase), most hits filed as activators; actives 0.13% (n = 340,000); active = well fitted activation curve with a large enough effect; inconclusive = small, poorly fitted or top-dose-only effect, or another doubt; inactive = no such curve, though single readings can be large or run the other way; cell line not stated here;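 note: phosphodiesterase inhibitor Ro 20-1724 added with compounds to block cAMP breakdown; potency is the fitted concentration of half-maximal effect; nearly all actives have a fitted effect of over 60% in size; about a fifth of the inactives were tested at one dose only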
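Cells in DMEM/10% FBS with G418 were pretreated with compounds in DMSO plus […] (300 uM stock) for 30 min at 37C. cAMP was measured by HTRF (cAMP-d2 plus anti-cAMP antibody-K) after 30 min at room temperature.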
D2 PAM: positive allosteric modulators of human D2 dopamine receptor; DiscoveRx D2 beta-arrestin cells, luminescence, 90 min; 100% = 57 uM dopamine signal; actives 0.23% (n = 360,000); P14416; potentiation, % (concentration not given with the values); active = potentiation of 50% or more; inconclusive = 30% to 50%; inactive = 30% or less;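 note: compound concentration not given in the record; tested on top of an EC20 dose of dopamine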
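PathHunter D2 cells, attached overnight at 37 deg C, received compound in DMSO plus dopamine at EC20 (50 nM final) for 90 min at 37 deg C. Beta-arrestin recruitment was read as luminescence after 1 h with detection reagent at ambient temperature.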
gsp antag: antagonists of gsp mutant (McCune-Albright syndrome). gsp-mutant cells, cAMP HTRF, 30 min; control for the full effect not named in the record. Potency, µM (top dose mostly 76.9 µM), inactives show top-dose activity change, negative = inhibition, hits mostly inhibitors. actives 0.4% (n = 340,000). AID 624288; active = falling curve of any shape with a large fitted effect; inconclusive = falling curve, mostly with a smaller effect; inactive = flat or rising curve; cell line not stated here;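 note: intracellular cAMP measured with PDE inhibitor Ro 20-1724 present during compound exposure; potency is the fitted concentration of half-maximal effect; % is set by controls: 0 for no effect and ±100 for the full control effect; nearly all actives have a fitted effect of over 65% in size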
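HTRF cAMP measurement after 30 min RT detection following 30 min, 37C compound treatment alongside […] (added as 300 uM solution) in G418-selected cells seeded at 2000/well and grown 16–24 h.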
D2 agonist: agonists of human D2 dopamine receptor (beta-arrestin); DiscoveRx PathHunter D2 beta-arrestin, luminescence, 90 min; 100% = 57 uM dopamine signal; P14416; activation, % (concentration not given with the values); AID 624465; actives 0.084% (n = 360,000); in the data active = activation above about 40%; inconclusive = about 15% to 40%; inactive = below about 15%; note: compound concentration not given in the record; the text of the record calls up to 30% inactive
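DiscoveRx PathHunter D2 beta-arrestin cells (2,100/well) attached overnight, then compound-stimulated 90 min at 37 C in HBSS/10 mM HEPES/0.1% Tween-20 buffer; beta-galactosidase complementation read by luminescence after 1 h at ambient temperature. Dopamine 57 uM final (EC100) as control.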
Numbers without * were called inactive; ? = inconclusive; nt = not tested or not shown; [ ] = remark or other dose.

SMILES	D2 PAM	gsp antag	Six1-Eya2 inh	gsp ag	CtBP-E1A inh	D2 agonist
O=C(NCc1ccc(F)cc1)c1cc(C2CCCCN2C(=O)CCCc2ccccc2)on1 (stereo not drawn)	-6	nt	-3	nt	1	-1.5
O=c1[nH]c(CSc2nc3ccccc3o2)nc2c1cnn2-c1ccccc1	-11	4%	7	-35%[inhibitor]	-1	2.4
COc1ccc(CCn2nnnc2C(c2ccccc2)N2CCN(C)CC2)cc1OC (stereo not drawn)	-24	0%	21	-9%	0	-2.3
C=CCOc1c(Br)cc(/C=N/Nc2ccc(C(=O)O)cc2)cc1OCC	9	8%	?	-16%	-28	5.4
O=S(=O)(c1ccc(F)cc1)N1CCCC(c2nc(-c3ccc(F)cc3)no2)C1 (stereo not drawn)	-16	-1%	-1	nt	-1	2.1
CCc1ccc(N2C(=O)C3C(C2=O)N2CCCN2C3c2ccccc2)cc1 (stereo not drawn)	-10	-3%	4	-5%[15.4 µM]	9	-0.9
C[C@@H](CN1C(=O)C(=O)NC[C@@H]1Cc1ccc(O)cc1)NC(=O)Cc1ccccc1	-4	15%	0	0%	3	0.2
CCc1noc(C)c1C(=O)N(CC)CC(=O)NCc1ccc(F)cc1	-6	nt	2	-205%[inhibitor]	0	-0.9
CCC1=CC(c2ccccc2)n2ncnc2N1 (stereo not drawn)	-4	3%	4	-20%	-6	-5.9
CCOC(=O)Cn1c(=O)oc2cc(S(=O)(=O)NCCC(C)C)ccc21	-4	9%	8	-30%	-1	5.2
CC(C)N1C(=O)NC2NC(=O)N(C(C)C)C21 (stereo not drawn)	-4	nt	1	nt	11	-3.3
CCc1ccc(C(=O)C(C)OC(=O)c2cccc(S(=O)(=O)N3CCOCC3)c2)cc1 (stereo not drawn)	-2	-9%	6	6%[15.4 µM]	4	1.0
O=C(c1ccc(COc2ccc(Cl)cc2)cc1)N1CCCCC1	-6	-10%	6	0%	2	3.0
N/C(=N\O)c1ccccc1N1CCCCC1	-5	12%	-7	23%	4	7.0
CC1CCC/C(=N/NC(=O)c2ccccc2-n2cccc2)C1 (stereo not drawn)	3	10%	3	2%	0	-0.2

Reprinted from the part before: 2 entries, followed by the next part.
SMILES	D2 PAM	gsp antag	Six1-Eya2 inh	gsp ag	CtBP-E1A inh	D2 agonist
N/C(=N\O)c1ccccc1N1CCCCC1	-5	12%	-7	23%	4	7.0
CC1CCC/C(=N/NC(=O)c2ccccc2-n2cccc2)C1 (stereo not drawn)	3	10%	3	2%	0	-0.2
O=C(CCc1ccccc1)N=C1SC2CS(=O)(=O)CC2N1c1ccc(F)cc1 (stereo not drawn)	-7	-3%	-1	3%	3	-3.6
Cc1noc(C)c1COC(=O)c1cccc(S(=O)(=O)N2c3ccccc3CC2C)c1 (stereo not drawn)	-5	-23%	1	-8%	9	-1.1
COc1ccc(S(N)(=O)=O)cc1C(=O)OCCCC(=O)c1ccccc1	0	9%	1	0%	5	-2.0
CCCC(=O)C1=C(N2CCCCC2)CC(C)(C)C(C(=O)OC)C1=O (stereo not drawn)	-2	-2%	1	12%	7	-3.3
CC[C@H](C)[C@H]1CNC(=S)N1CC1CCN(CCC(C)(C)C)CC1	-18	8%	0	nt	2	-1.3
C/C(=N\NC(=O)Cc1cccn1C)c1cccc2ccccc12	-24	-3%	-17	2%	-14	-2.9
COc1cccc(CNC(=O)C2CCN(Cc3cnn(-c4ccccc4)c3-n3cccc3)CC2)c1	-27	-7%	-6	-3%	-4	-3.8
CCOc1ccc(-c2cnc(NCc3cccc4ccccc34)n2CCOC)cc1	-29	?	?	-57%[inhibitor]	-11	-2.0
Cc1cc(C(=O)N2CCc3ccccc32)ccc1[N+](=O)[O-]	-34	nt	-4	2%	0	-9.4
O=C(NCc1cccnc1)c1cn(CCc2ccccc2)nn1	-10	12%	-2	-53%[inhibitor]	3	-1.1
COc1cccc(N2CCN(C(=S)Nc3cc(C)cc(C)c3)CC2)c1	-7	-11%	1	15%[15.4 µM]	9	-0.7
CC(CN1CCOCC1)OC(=O)C(c1ccccc1)c1ccccc1 (stereo not drawn)	-7	6%	1	18%	-1	-4.5
COc1ccc(N(CC(=O)Nc2cccc(C)c2)S(=O)(=O)c2ccc(C)cc2)cc1OC	-53	-6%	-4	-6%	nt	-3.5
O=C(NC(=S)N1CCc2ccccc21)c1ccccc1Cl	-4	nt	-1	22%[15.4 µM]	0	-1.8
NC(=O)NC(=O)CN1C(=O)NC(c2ccccc2)(c2ccccc2)C1=O	-6	12%	-6	-4%	7	-3.0

Taken from above:
O=c1[nH]c(CSc2nc3ccccc3o2)nc2c1cnn2-c1ccccc1 – CtBP-E1A inh: -1
COc1ccc(S(N)(=O)=O)cc1C(=O)OCCCC(=O)c1ccccc1 – gsp ag: 0%
O=C(NCc1ccc(F)cc1)c1cc(C2CCCCN2C(=O)CCCc2ccccc2)on1 (stereo not drawn) – D2 agonist: -1.5

The list continues:
SMILES	D2 PAM	gsp antag	Six1-Eya2 inh	gsp ag	CtBP-E1A inh	D2 agonist
C[C@H](CO)N1C[C@H](C)[C@@H](CN(C)Cc2ccc(Cl)c(Cl)c2)Oc2c(NS(=O)(=O)c3cccs3)cccc2C1=O	-4	-20%	-3	nt	-3	-0.8
COc1cc(/C=C2\CCC(C3CCCC3)C2=O)cc(OC)c1OC (stereo not drawn)	1	-1%	-2	6%[15.4 µM]	12	-0.6
Cc1ccc(NS(=O)(=O)c2cccc(C(=O)NCC(c3cccs3)N(C)C)c2)cc1 (stereo not drawn)	-17	-8%	-2	19%	3	1.0
CCOc1ccccc1NC(=O)C(Sc1nnnn1C)c1ccccc1 (stereo not drawn)	-4	8%	-4	16%	6	-4.7
CN(Cc1cccc(F)c1)C(=O)Cc1ccc(S(=O)(=O)N2CCOCC2)s1	4	7%	4	7%[15.4 µM]	7	-4.3
Cn1ncc([N+](=O)[O-])c1C(=O)Nc1ccc2c(c1)OCCO2	2	14%	2	-4%	-1	-1.1
CCN(CC(=O)Nc1ccc(NC(C)=O)cc1)C(=O)/C=C/c1cccs1	-1	8%	4	?	0	1.0
CSC1=C(C#N)C(c2ccc(C)s2)CC(=O)N1 (stereo not drawn)	-9	9%	-1	-28%	3	3.6
N#Cc1cnc2nc(SCc3ccccc3)nn2c1	-2	1%	10	?	6	-1.5
Cc1cc(C(=O)COC(=O)Cc2ccc(Cl)cc2)c(C)n1C	-27	9%	-3	-6%[15.4 µM]	-19	-2.2
CSc1ccccc1C(=O)C1CCCN(C(=O)c2csnn2)C1 (stereo not drawn)	-6	4%	3	-19%	7	-1.4
Cc1nonc1NC(=O)CSc1nc(C2CCCCC2)nc2ccccc12	-14	-33%	0	22%	-1	-4.5
CC(=O)NCC1CCCN(C(=O)c2ccc(OC3CCN(Cc4ccccn4)CC3)cc2)C1 (stereo not drawn)	1	21%	2	12%	7	0.5
O=C1N[C@@H](Cc2ccccc2)COC(=O)[C@@H](Cc2ccc(F)cc2)C/C=C\C[C@@H]1CC(=O)N(CCO)Cc1ccccc1	-13	-9%	3	2%	-10	-12
CCCCNC(=O)c1onc(CSc2cccc(OC)c2)c1C(=O)O	-2	-13%	-4	-7%	nt	-3.0
NC(Cc1ccc(Cl)cc1)c1csc(NC(=O)NCCc2ccccc2)n1 (stereo not drawn)	5	nt	-11	nt	-4	6.4
Cc1nn(CC(=O)NCCCN2CC(C)CC(C)C2)c(=O)c2cccn12 (stereo not drawn)	-16	22%	3	6%	5	-4.4
CCn1cc2c(c1-c1cccc(C)c1)c(=O)n(C)c(=O)n2C	-7	-1%	3	29%	10	-1.2
CC1CSc2n(-c3cccc(C(F)(F)F)c3)cc(-c3ccccc3)[n+]21 (stereo not drawn)	0	15%	3	-12%[15.4 µM]	4	-2.4
CCCCCc1cc(=O)oc2c(C(CCN3CCCCC3)c3ccc4c(c3)OCO4)c(OC)cc(OC)c12 (stereo not drawn)	-16	9%	-23	nt	?	0.9
Cc1c(C(=O)Nc2cccc3cccnc23)oc2ccccc12	5	1%	9	?	14	0.6
COc1ccc(S(=O)(=O)NCC(c2ccc3c(c2)OCO3)N2CCN(C)CC2)cc1OC (stereo not drawn)	-6	11%	10	-40%[inhibitor]	2	-6.3
Cc1ccc(OCc2nc3ccccc3[nH]2)cc1	-10	0%	2	1%	-19	1.7
O=C(COc1ccc2c3c(c(=O)oc2c1)CCCC3)N1C[C@H]2C[C@@H](C1)c1cccc(=O)n1C2	-35	-1%	-8	nt	-29	-7.0
CCOC(=O)N1CCN(CC(c2ccccc2)c2ccccc2)CC1	-2	-3%	2	-21%	10	-2.2
CCOC(=O)N1CCN(C(=O)CS(=O)(=O)c2cn(Cc3cccc(F)c3)c3ccccc23)CC1	-8	-2%	6	10%	1	-2.4
C[C@H](CO)N1C[C@H](C)[C@@H](CN(C)C(=O)NC2CCCCC2)Oc2ccc(NS(=O)(=O)c3cccs3)cc2C1=O	nt	5%	-2	nt	8	-1.2
N#Cc1nc(-c2ccc(OCc3ccc(Cl)cc3)cc2)oc1N1CCOCC1	-2	11%	-1	-10%	3	-2.7
Cc1ccc(NC(=S)NCc2ccco2)c(C)c1	-12	5%	-15	-5%[15.4 µM]	-22	-1.2
CCOc1ccc(NC(=S)Nc2cccc3ccccc23)cc1	-16	0%	-13	-2%	-18	-5.7
O=C(NNC(=O)c1ccc(F)cc1F)c1ccc(-n2cnnn2)cc1	0	0%	-3	-5%	-17	-5.1
Cc1cccc2[nH]c3c(N4CCC5(CC4)OCCO5)ncnc3c12	-4	-20%	-12	-17%	-1	-3.2
Cc1c(C)[n+](=O)c(-c2ccc(F)cc2)c(C)n1[O-]	1	6%	-2	-21%	-15	-2.5
COc1cc(C2C(C#N)=C(N)OC3=C2C(=O)CCC3)c([N+](=O)[O-])cc1OC (stereo not drawn)	16	?	-19	-4%	-26	-1.2
CSc1ccc(Cn2c(C)c(C(=O)NCc3ccc(F)cc3)sc2=O)cc1	-5	nt	-5	nt	-5	8.2
CCCc1nnc(NC(=O)COc2ccc3c(c2)OCO3)s1	4	4%	-3	7%	-2	0.1
Cc1cccc(NC(=S)N/N=C2\CC(C)(C)Oc3ccc(O)cc32)c1	3	?	-28	?	-25	-0.3
CNCc1cc(Br)c(OCC(=O)Nc2ccccc2OC)c(OC)c1	-6	4%	-6	0%	-1	0.1
O=[N+]([O-])c1ccc(N2CCN(S(=O)(=O)c3ccccc3)CC2)cc1NCc1cccnc1	-22	-1%	-16	-2%	-13	-2.2
C/C(=N\NC(=O)c1ccc([N+](=O)[O-])cc1)c1c(O)cc(C)oc1=O	-8	1%	-2	5%[15.4 µM]	8	-2.6
Cc1cc(Cl)ccc1OCC(=O)Nc1ccncc1	-5	-21%	-4	-25%	7	-3.7
